# Sfp PPTase inh = blocks B. subtilis Sfp PPTase activity. Q9F4F7. Biochemical Sfp PPTase activity, qHTS. Potency, µM, inactives show max response, negative = inhibition, actives largely listed as inhibitors. 310,000 compounds, 3.5% hits; active means well fitted inhibition curve with a large enough effect; inconclusive means small, poorly fitted or top-dose-only effect, or another doubt; inactive means no such curve, though single readings can be large or run the other way;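 further: the enzyme is Sfp with the accession as filed and its product quenches rhodamine fluorescence; potency means the concentration at half of the fitted maximal effect; 0% = enzyme reaction without inhibitor and -100% = no enzyme wells; top concentration of the series not given in the record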
#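 Reaction rates are the 30-min fluorescence difference (ex 525, em 598 nm) in wells containing 15 nM Sfp, 5 uM rhodamine-CoA and 12.5 uM BHQ-2-YbbR at pH 7.6 with 10 mM MgCl2.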
# gsp ag = gsp mutant agonism; gsp mutant cells, cAMP HTRF, 30 min; control for the full effect not named in the record; AID 624287; 340,000 compounds, 0.13% hits; Potency, µM (highest dose often 76.9 µM), for the others: at the highest dose activation (cAMP increase), actives largely listed as activators; active = well fitted activation curve with a large enough effect; inconclusive = small, poorly fitted or top-dose-only effect, or another doubt; inactive = no such curve, though single readings can be large or run the other way; cell line not stated here;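 further: phosphodiesterase inhibitor Ro 20-1724 added with compounds to block cAMP breakdown; potency means the concentration at half of the fitted maximal effect; nearly all actives have a fitted effect of over 60% in size; about a fifth of the inactives were tested at one dose only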
#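 Cells in DMEM/10% FBS with G418 were pretreated with compounds in DMSO plus […] (300 uM stock) for 30 min at 37C. cAMP was measured by HTRF (cAMP-d2 plus anti-cAMP antibody-K) after 30 min at room temperature.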
# gsp antag = antagonists of gsp mutant (McCune-Albright syndrome) | gsp-mutant cells, cAMP HTRF, 30 min; control for the full effect not named in the record | Potency, µM (doses to about 76.9 µM), without a hit: top-dose activity change, negative = inhibition, usual class: inhibitors | 340,000 compounds, 0.4% hits; active = falling curve of any shape with a large fitted effect; inconclusive = falling curve, mostly with a smaller effect; inactive = flat or rising curve; cell line not stated here;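 further: intracellular cAMP measured with PDE inhibitor Ro 20-1724 present during compound exposure; potency means the concentration at half of the fitted maximal effect; on the % scale 0 is the no-effect control and ±100 the full control effect; nearly all actives have a fitted effect of over 65% in size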
#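 G418-selected cells were plated in DMEM/10% FBS for 16-24 h at 37C, then treated with compounds plus the PDE inhibitor […] (300 uM solution added) for 30 min at 37C. Intracellular cAMP was measured by HTRF after 30 min lysis at room temperature.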
# Menin MLL FP FL = displaces fluorescein MLL peptide from human menin; 290,000 tested, under 10 active; Fluorescence polarization, fluorescein-MLL peptide displacement from menin; FP activity change, % at 61.4 µM; AID 1766; inconclusive = falling polarisation curve, or a change in total fluorescence; inactive = total fluorescence flat and polarisation flat or rising; no compound was filed as active; the % refers to the polarisation; negative = inhibition;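 further: % of control where 0% means no effect; inhibitors lower the polarisation; unlabelled MLL peptide was the positive control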
# ClpP mod = qHTS Assay for Activators of ClpP | ATP-dependent Clp protease proteolytic subunit (Bacillus subtilis (strain 168)), P80244 | purified B. subtilis ClpP, FRET peptide cleavage, 20 min | Potency, µM (titrated, usually from 57.5 µM), inactives show at the highest dose activity change, negative = active | 340,000 compounds, 1.9% hits; active = well fitted falling curve with a large enough effect; inconclusive = small, poorly fitted or top-dose-only effect; inactive = no such curve, though single readings can be large or run the other way; further: potency means the concentration at half of the fitted maximal effect; the source files actives as falling curves though it sought activators and does not explain the sign; nearly all actives have a fitted effect of over 65% in size; many hits overshoot -100%
# Target sequence (P80244 whole entry, looked up): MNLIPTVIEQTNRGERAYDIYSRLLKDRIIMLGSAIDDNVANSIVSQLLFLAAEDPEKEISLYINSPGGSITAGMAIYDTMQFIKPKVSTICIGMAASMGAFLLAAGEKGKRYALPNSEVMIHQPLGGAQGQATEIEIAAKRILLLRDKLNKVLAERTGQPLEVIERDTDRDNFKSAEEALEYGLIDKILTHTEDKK
#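 Purified B. subtilis ClpP, 10 microg/mL final in Tris/HCl pH8 with KCl, BSA, glycerol and Tween-20, cleaved an Abz/nitrotyrosine-quenched decapeptide. Fluorescence (ex 320, em 430) was read at 0 and 20 min at room temperature. Delta was normalized to 5.8 microM ADEP and DMSO/no-enzyme controls.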
# TRPV1 PAM = enhances activation of the human vanilloid receptor TRPV1; potentiation, % at 8.33 µM; TRPV1-expressing cells, Fluo-8 calcium influx, capsaicin EC20 potentiation; host cell line not named in the record; control for the full effect not named in the record; Q8NER1; 320,000 compounds, 0.02% hits; active means potentiation above 80%; inconclusive means 30% to 80%; inactive means below 30%; further: 0% is about no effect
# Target sequence (Q8NER1 whole entry, looked up): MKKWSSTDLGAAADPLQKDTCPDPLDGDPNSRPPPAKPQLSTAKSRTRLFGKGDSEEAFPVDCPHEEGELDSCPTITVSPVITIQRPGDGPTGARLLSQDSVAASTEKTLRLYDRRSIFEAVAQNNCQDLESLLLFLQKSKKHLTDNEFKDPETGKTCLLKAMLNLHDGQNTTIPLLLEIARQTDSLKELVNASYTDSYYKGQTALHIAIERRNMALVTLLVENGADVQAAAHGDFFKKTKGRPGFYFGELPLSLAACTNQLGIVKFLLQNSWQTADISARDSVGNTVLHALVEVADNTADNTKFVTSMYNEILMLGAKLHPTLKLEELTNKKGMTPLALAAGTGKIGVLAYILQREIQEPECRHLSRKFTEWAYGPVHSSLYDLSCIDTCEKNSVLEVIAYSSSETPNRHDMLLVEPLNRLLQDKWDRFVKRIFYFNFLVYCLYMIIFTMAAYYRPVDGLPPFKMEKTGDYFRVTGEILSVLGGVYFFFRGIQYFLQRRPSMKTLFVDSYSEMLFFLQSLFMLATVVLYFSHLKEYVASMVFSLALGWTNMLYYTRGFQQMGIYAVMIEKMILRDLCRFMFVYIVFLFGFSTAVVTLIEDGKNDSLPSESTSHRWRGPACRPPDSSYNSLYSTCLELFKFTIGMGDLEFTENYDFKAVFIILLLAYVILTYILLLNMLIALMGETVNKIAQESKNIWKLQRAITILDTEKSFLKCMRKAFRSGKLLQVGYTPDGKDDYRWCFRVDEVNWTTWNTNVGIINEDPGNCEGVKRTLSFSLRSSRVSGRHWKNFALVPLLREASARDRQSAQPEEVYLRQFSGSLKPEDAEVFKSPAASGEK
#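 TRPV1-expressing cells were cultured overnight at 35.5C and loaded with Fluo-8 calcium dye for 40 to 90 min at room temperature. After a 10 s baseline, compound was added and calcium influx was read kinetically for 3 min (ex 480/em 520 nm).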
# D2 potentiator = human D2 receptor positive allosteric modulation. 360,000 compounds, 0.23% hits. potentiation, % (concentration not given with the values). DiscoveRx D2 beta-arrestin cells, luminescence, 90 min; 100% = 57 uM dopamine signal; active = potentiation of 50% or more; inconclusive = 30% to 50%; inactive = 30% or less;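 further: tested on top of an EC20 dose of dopamine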
#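 PathHunter D2 cells, attached overnight at 37 deg C, received compound in DMSO plus dopamine at EC20 (50 nM final) for 90 min at 37 deg C. Beta-arrestin recruitment was read as luminescence after 1 h with detection reagent at ambient temperature.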
# * = called active by the depositor; ? = inconclusive; . = no result given; & = joins results of further samples; [ ] = remark or other dose.
# Start of the data: the first two records as a preview:
SMILES,Sfp PPTase inh,gsp ag,gsp antag,Menin MLL FP FL,ClpP mod,TRPV1 PAM,D2 potentiator
CC(C)NC(=O)c1ccc(C2SCC(=O)N2Cc2ccccc2)cc1 (stereo not given),11%,3%,-6%,0.4,-2.3%,-9,0
Cc1c(C(=O)N(C)CCCCN2CCOCC2)oc2c(F)cccc12,8%,-40%[inhibitor],-9%,1.0,.,26,-16

# The whole of this part, from the first entry:
SMILES,Sfp PPTase inh,gsp ag,gsp antag,Menin MLL FP FL,ClpP mod,TRPV1 PAM,D2 potentiator
CC(C)NC(=O)c1ccc(C2SCC(=O)N2Cc2ccccc2)cc1 (stereo not given),11%,3%,-6%,0.4,-2.3%,-9,0
Cc1c(C(=O)N(C)CCCCN2CCOCC2)oc2c(F)cccc12,8%,-40%[inhibitor],-9%,1.0,.,26,-16
O=C(Nc1ccc(OCc2ccccc2)cc1)Nc1ccccc1C(=O)NCCCN1CCOCC1,-21%,5%,-3%,0.3,.,-8,-15
N#C/C(=C\c1ccccc1Br)C(=O)NC1CC1,9%,21%,0%,.,1.4%,-6,-32
O=C1NC(Cc2ccccc2)C(=O)N1CC(=O)N1CCCc2ccccc21 (stereo not given),-13%,19%[15.4 µM],.,-2.6,.,10,-49
Cc1cc(C(=O)N/N=C/c2cc(Br)ccc2OC(=O)c2ccccc2Cl)n[nH]1,16%,-9%[15.4 µM],-11%,2.2,-0.7%,3,-9
NC(=O)c1ccc(NC(=O)Cc2ccc(S(=O)(=O)N3CCCCC3)cc2)cc1,.,-33%,-2%,.,-0.9%,-7,-1
CCN(CC)C(=O)Cn1cc(C(=O)C(=O)N2CCN(Cc3ccc4c(c3)OCO4)CC2)c2ccccc21,0%,-2%,2%,.,-1.4%,-16,-3
CSCC[C@H](NC(=O)c1cc2c([nH]c3ccccc32)c(-c2ccccc2)n1)C(=O)O,13%,6%,?,5.7,3.8%,-59,-5
O=C(N/N=C\c1c(O)ccc2ccccc12)c1ccc(S(=O)(=O)N2CCCCC2)cc1,14%,-11%[15.4 µM],9%,?,2.3%,-15,-6
O=C(NCc1ccccc1)c1cccc(COc2cc(Cl)ccc2Cl)c1,15%,0%,-17%,1.5,-5.4%,-5,1
Cc1ccc2nc(-c3ccccn3)cc(C(=O)Nc3ccc(S(=O)(=O)N4CCOCC4)cc3)c2c1,8%,-17%[15.4 µM],-6%,2.6,.,-18,-5
O=C1/C(=C\c2cccnc2)CCc2ccccc21,7%,1%,-11%,4.5,2.3%,-9,-8
Cc1cc2n(n1)C(c1sccc1C)Nc1c(C)cccc1-2 (stereo not given),-4%,?,?,0.2,28µM*,-4,-2
COc1ccc(N/C=C/C(=O)c2ccc(Cl)cc2)cc1,22%,-5%,13%,1.6,-4.1%,2,16
Cc1ccc(OCC(=O)Nc2ccncc2)c(C)c1,9%,-18%,-10%,-3.5,-0.1%,-23,1
COc1cc(/C=C/C(=O)OCC(=O)Nc2cc(S(=O)(=O)N(C)C)ccc2Cl)ccc1O,-8%,-2%[15.4 µM],-19%,-0.8,.,-14,-2
O=C(C1CCC(=O)N(C2CCCC2)C1)N1CCN(Cc2cccc(F)c2)CC1 (stereo not given),13%,-9%,9%,-9.3,2.1%,?,-1
c1ccc2sc(N3CCCCC3)nc2c1,.,17%,6%,.,.,.,-1
O=C(C1CCCO1)N1CCC(c2nc3ccccc3[nH]2)CC1 (stereo not given),6%,-1%,5%,0.3,-2.1%,-6,-12
Cc1c(C(=O)N2CCN(C)CC2)oc2c1C(=O)CC(C)(C)C2,-3%,?,3%,-1.4,-1.1%,-5,-10
Cc1cc(C)c2oc(-c3ccc(C)c(NC(=S)NC(=O)/C=C/c4ccco4)c3)nc2c1,40µM*,4%,7%,29,4.7%,6,-16
Cc1cccc(NC(=O)c2cc(S(=O)(=O)N3CCOCC3)cn2C)c1C,8%,3%,12%,-0.2,-0.2%,-2,-1
CN(C)c1nc(C#N)nc(N(C)C)n1,19%,15%,2%,0.4,-2.0%,-1,1
Cn1cccc1/C=C1\SC(=S)N(NC(=O)c2ccc(F)cc2)C1=O,-13%,-21%,-24%,?,.,-13,-14
CCc1ccc(NC(=O)C(=O)NNC(=O)c2cccs2)cc1,7%,?,-11%,0.5,.,4,-8
O=C1CC(c2ccco2)CC(O)=C1C=NCC1NCCc2ccccc21 (stereo not given),-2%,20%,0%,0.6,-4.3%,12,-10
Cc1ccc(C(=O)N/C(=C\c2sccc2C)C(=O)NCc2ccco2)cc1,-5%,0%,-11%,4.6,-2.8%,17,-16
CCc1cccc(OCCOC(=O)CNS(=O)(=O)c2ccc(NC(C)=O)cc2)c1,.,1%,-7%,.,?,13,-39
COc1cc(/C=C2/S/C(=N/S(=O)(=O)Cc3ccccc3)NC2=O)c([N+](=O)[O-])cc1OC,19%,-3%,-5%,2.2,0.4%,-7,-14
CCCn1c(SC(C)C(=O)NC2CCCC2)n[nH]c1=O (stereo not given),.,2%[15.4 µM],7%,.,0.9%,0,-5
CCCCC(=O)N1C/C=C\C(c2ccc(OC)cc2)N(Cc2ccc(F)cc2)C(=O)C1 (stereo not given),11%,.,-11%,3.1,-4.0%,-18,-18
CCN(C(=O)COC(=O)C1CCN(S(=O)(=O)c2ccc(C)c(C)c2)CC1)C1CCCCC1,.,11%,1%,.,0.5%,-16,-1
COc1ccc(/C=C2/CSC/C(=C/c3ccc(OC)c(OC)c3)C2=O)cc1OC,.,-4%,-13%,.,0.5%,.,-7
Cn1nc(-c2ccccc2)c2cc([N+](=O)[O-])ccc21,15%,-45%[inhibitor],-25%,-1.3,.,?,-2
CC(C)=CCc1ccc(O)c(=O)cc1C(C)C,.,-57%,10%,.,-5.0%,.,-4
CCCc1nc2c(sc3nc4c(cc32)COC(C)(C)C4)c(=O)n1CCN(CC)CC,-1%,-5%[15.4 µM],3%,-1.7,-6.5%,-12,-16
C[C@H]1CN([C@@H](C)CO)C(=O)CCCn2cc(nn2)CO[C@@H]1CN(C)C(=O)Nc1ccccc1F,.,27%,.,.,1.9%,.,5
CN(C)C(CNC(=O)c1ccc(NC(=O)CC#N)cc1)c1ccccc1 (stereo not given),20%,18%,-3%,4.6,.,1,-6
O=S(=O)(Nc1ccc(-n2cccc2)cc1)c1ccccc1,8%,-12%,3%,16,-0.5%,-4,-20
COc1cccc(C(=O)NNC(=O)c2ccccc2)c1,15%,0%,14%,-1.4,2.8%,-3,-3
N#CCCCn1c(=O)oc2ccccc21,1%,-3%[15.4 µM],20%,1.3,.,8,0
COc1ccc(C(=O)NC(CCSC)C(=O)NC2CC2)cc1 (stereo not given),.,6%,7%,.,-0.5%,-8,-4
COc1ccc(/C=C/C(=O)Oc2ccc(C)c(C)c2)cc1OC,8.9µM*,2%[15.4 µM],-3%,6.3,.,19,-6
Cc1c(C(=O)C(=O)N2c3ccc(F)cc3CCC2C)c2ccccc2n1C (stereo not given),3%,-9%,20%,-2.6,-0.1%,5,1
CCN(CC)CC(=O)NC12CC3CC(CC(C3)C1)C2,14%,-48%[inhibitor],13%,10,-1.4%,18,-10
COc1cc(N2CCCC2)ccc1[N+](=O)[O-],-6%,11%,-10%,-2.3,-8.5%,-7,-10
Cc1ccccc1Cn1c(=N)n(CC(=O)c2ccc([N+](=O)[O-])cc2)c2ccccc21,-7%,-13%,5%,3.0,0.3%,-5,30
COc1cc(/C=C/C(=O)OCC(=O)Nc2ccc(S(=O)(=O)N3CCCC3)cc2)ccc1O,-8%,-13%,-15%,4.4,-14%,-19,-20
O=C(Cn1nnc2ccccc2c1=O)Nc1ccc2c(c1)CCC2,11%,-35%[inhibitor],3%,-1.2,-5.8%,-7,1
COc1ccc(C(=O)Nc2nccs2)cc1[N+](=O)[O-],9%,-23%,-3%,5.6,-0.6%,9,3
C=CCN1c2ccccc2[C@]23C[C@@H](C(=O)OC)N=C2NC(C(=O)OC)=C(C(=O)OC)[C@H]13,6%&3%,.,2%,0.0[11.7 µM],-0.4%,?,-3
CCCS(=O)(=O)N1CCN(Cc2ccc3c(c2)c2ccccc2n3CC)CC1,-10%,13%,-8%,.,?,-8,-22
COc1cccc(C(=O)N2CCn3c2nc2ccccc23)c1,8%,5%[15.4 µM],11%,1.5,.,-4,-4
Cc1nnc(NC(=O)CC(C)c2ccccc2)s1 (stereo not given),3%,-9%,3%,-0.9,-2.3%,-4,-1
Cc1ccc2c(CC(=O)NC3CCS(=O)(=O)C3)coc2c1C (stereo not given),6%,14%,6%,0.2,-1.0%,-12,-6
CCc1nc2c(C#N)c(-c3ccc(Cl)cc3)ccn2n1,1%,6%,18%,-0.5,-22%,-3,-2
Cc1ccc(NC(=S)N2CCN(c3ccccc3F)CC2)c(C)c1,14%,-2%[15.4 µM],-12%,-0.9,0.7%,-13,-30
Oc1c(Cl)cc(CN2CCOCC2)c2cccnc12,.,?,1%,.,-0.2%,24,-10
Cc1cccc(N(Cc2cc3ccccc3[nH]c2=O)C(=O)c2cccs2)c1,17%,-3%[15.4 µM],-17%,-1.8,.,-3,-4
# The listing continues:
SMILES,Sfp PPTase inh,gsp ag,gsp antag,Menin MLL FP FL,ClpP mod,TRPV1 PAM,D2 potentiator
CCCC(C)(C)NC(=O)CCCCC(=O)NC(C)(C)CCC,15%,-30%,4%,2.3,0.3%,-1,-4
COc1ccccc1N(CC(=O)N1CCN(Cc2ccccc2)CC1)S(=O)(=O)c1ccccc1,.,-48%,.,.,-1.2%,.,-26
O=C(NC(=S)Nc1ccc(Cc2ccncc2)cc1)c1ccccc1,-14%,-5%,-18%,8.0,33%,0,-6
CC(C)OC(=O)c1cc(NC(=S)Nc2ccc([N+](=O)[O-])cc2)cc(C(=O)OC(C)C)c1,5%,17%,?,2.2,?,4,-3
O=C(O)C(NS(=O)(=O)c1ccccc1)C(O)c1ccccc1 (stereo not given),8%,-23%,3%,1.0,.,-1,-3
CCOc1ccccc1NC(=O)CCC(=O)Nc1ccccc1OCC,-13%,-39%[inhibitor],22%,-1.7,0.3%,-19,-24
COC(=O)C1=C(C)n2cnnc2NC1c1ccc(Cl)cc1 (stereo not given),24%,?,-9%,1.8,-3.3%,?,-1

# Screening results: PubChem BioAssay, National Center for Advancing Translational Sciences (NCATS)
